Six1-Eya2 inh = blocks human Six1 binding to Eya2 | AlphaScreen GST-Six1/His-Eya2 binding, biochemical; active compounds read low; control for the full effect not named in the record | activity change, % (no concentration beside the values) | actives 0.56% (n = 360,000); in the data active = activity change below about -65%; inconclusive = about -30% to -65%; inactive = above about -30%; note: % is set by controls: 0 for no effect and ±100 for the full control effect
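AlphaScreen with GST-Six1 and His-Eya2 (5X mix: 250 nM and 500 nM), glutathione donor and nickel acceptor beads; buffer 50 mM Tris pH 8.0, 300 mM NaCl, 1 mM TCEP; 1 h at 37 C in the dark.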
D2 potentiator = potentiates the human D2 dopamine receptor allosterically. DiscoveRx D2 beta-arrestin cells, luminescence, 90 min; 100% = 57 uM dopamine signal. potentiation, % (concentration not given with the values). actives 0.23% (n = 360,000). AID 624464; active = potentiation of 50% or more; inconclusive = 30% to 50%; inactive = 30% or less;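 note: compound concentration not given in the record; tested on top of an EC20 dose of dopamine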
Target sequence (P14416 whole entry, looked up): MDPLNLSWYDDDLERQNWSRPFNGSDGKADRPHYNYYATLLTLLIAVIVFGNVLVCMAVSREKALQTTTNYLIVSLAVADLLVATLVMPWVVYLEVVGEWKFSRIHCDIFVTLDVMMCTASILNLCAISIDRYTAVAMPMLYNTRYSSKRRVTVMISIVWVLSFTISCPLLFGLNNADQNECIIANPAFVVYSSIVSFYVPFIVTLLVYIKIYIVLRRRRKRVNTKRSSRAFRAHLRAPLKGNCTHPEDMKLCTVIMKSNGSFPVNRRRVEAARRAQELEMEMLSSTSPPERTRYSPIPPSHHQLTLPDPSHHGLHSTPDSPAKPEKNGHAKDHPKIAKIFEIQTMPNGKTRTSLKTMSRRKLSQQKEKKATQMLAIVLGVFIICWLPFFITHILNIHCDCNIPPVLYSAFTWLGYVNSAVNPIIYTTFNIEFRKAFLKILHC
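D2 cells co-treated with compound plus 50 nM dopamine (EC20) for 90 min at 37 deg C to detect potentiation. Beta-arrestin recruitment was read as enzyme-fragment luminescence after 1 h at ambient temperature. Full response was set by 57 uM dopamine.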
CtBP-E1A blk = blocks the CtBP interaction with E1A; AlphaScreen GST-E1A/His-CtBP binding, 1536-well; active compounds read low; control for the full effect not named in the record; activity change, % (concentration not given with the values); actives 0.49% (n = 340,000); AID 651724; in the data active means activity change below about -65%; inconclusive means about -30% to -65%; inactive means above about -30%; note: % is set by controls: 0 for no effect and ±100 for the full control effect
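GST-E1A and His-tagged CtBP (125 nM each as 5X stock) were preincubated with pin-transferred compound for 2 h at 37 °C in the dark, then glutathione donor and nickel acceptor beads were added for 1 h before AlphaScreen reading.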
TRPML1 inh = inhibitors of human TRPML1 channel. AID 624415. activity change, negative = inhibition, % (concentration not given with the values). Q9GZU1. actives 0.02% (n = 390,000). TRPML1-inducible cells, Ca2+ dye fluorescence, FDSS; active compounds read low; inhibition of EC80 agonist-evoked calcium signal; in the data active means activity change below about -50%; inconclusive means about -30% to -50%; inactive means above about -30%;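 note: stimulus is agonist 54-4 at its EC80 concentration; % is set by controls: 0 for no effect and ±100 for the full control effect; the text of the record puts the active cut at -80%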
Target sequence (Q9GZU1 whole entry, looked up): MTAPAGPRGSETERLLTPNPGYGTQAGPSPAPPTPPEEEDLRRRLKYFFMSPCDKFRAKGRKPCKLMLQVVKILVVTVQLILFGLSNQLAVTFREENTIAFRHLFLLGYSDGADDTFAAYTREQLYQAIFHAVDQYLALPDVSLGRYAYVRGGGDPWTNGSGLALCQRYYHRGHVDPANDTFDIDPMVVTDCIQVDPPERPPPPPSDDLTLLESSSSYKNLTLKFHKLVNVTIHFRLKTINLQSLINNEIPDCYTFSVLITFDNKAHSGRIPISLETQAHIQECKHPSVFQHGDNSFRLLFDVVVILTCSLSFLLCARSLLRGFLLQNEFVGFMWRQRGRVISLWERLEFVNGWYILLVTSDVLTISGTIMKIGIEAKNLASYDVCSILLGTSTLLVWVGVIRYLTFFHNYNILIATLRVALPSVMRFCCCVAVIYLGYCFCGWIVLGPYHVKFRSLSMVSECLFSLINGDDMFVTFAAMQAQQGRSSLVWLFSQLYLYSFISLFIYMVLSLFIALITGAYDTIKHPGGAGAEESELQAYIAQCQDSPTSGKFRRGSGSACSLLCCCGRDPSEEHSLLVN
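Tet-induced TRPML1-DL cells loaded with Ca8 no-wash calcium dye were read kinetically on FDSS. Compound addition was followed by EC80 agonist 54-4 (4 uM final); inhibition was read over 110 s.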
TRPV1 potentiator = potentiators of human vanilloid receptor 1 (TRPV1) | actives 0.02% (n = 320,000) | TRPV1-expressing cells, Fluo-8 calcium influx, capsaicin EC20 potentiation; host cell line not named in the record; control for the full effect not named in the record | potentiation, % at 8.33 µM; active means potentiation above 80%; inconclusive means 30% to 80%; inactive means below 30%; note: 0% is about no effect
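Fluo-8 calcium influx in TRPV1-expressing cells, kinetic read (ex 480/em 520 nm). Compound added and read 3 min for agonist activity, followed by capsaicin at EC20 final and 2 min further read for enhancement.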
TRPML1 ag = human mucolipin-1 channel agonism. Q9GZU1. TRPML1-expressing cells, Ca2+ dye fluorescence, FDSS; host cell line not named in the record; reference of the full effect not given here. activation, % (test concentration not listed). actives 0.12% (n = 410,000); in the data active = activation above about 50%; inconclusive = about 30% to 50%; inactive = below about 30%; note: 0% is about no effect; the text of the record puts the active cut at 80%
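TRPML1-DL cells, Tet-induced overnight (~16 h, 37 degrees C), loaded 45-90 min at room temperature with Ca8 no-wash calcium dye plus quencher. FDSS fluorescence: 10 s baseline, compound pin-transfer, 110 s agonist read, then EC80 54-4 (4uM final) and 110 s antagonist read.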
Numbers without * were called inactive; ? = inconclusive; nt = no result given; & = joins results of further samples. Compounds were not picked by outcome; any-hit rate near 0.95%.

Keys: A = Six1-Eya2 inh; B = D2 potentiator; C = CtBP-E1A blk; D = TRPML1 inh; E = TRPV1 potentiator; F = TRPML1 ag
compound: COc1ccc(-n2c(SCC(=O)O)nc3sc4c(c3c2=O)CCCC4)cc1
  A = 6 | B = -1 | C = 0 | D = -13 | E = 4 | F = 3.0

compound: COc1cc(/C=N/NC(=O)Cc2ccccc2)ccc1Oc1ccc([N+](=O)[O-])cc1[N+](=O)[O-]
  A = -3 | B = 0 | C = 3 | D = 56 | E = 17 | F = 1.3

compound: CC(C)(C)Sc1ccc(N)nc1
  A = 0 | B = 10 | C = 1 | D = -1 | E = 2 | F = 1.6

compound: Cc1cc(-c2ccc(/C=N/n3cnnc3)o2)c(C)c([N+](=O)[O-])c1
  A = ? | B = -9 | C = -20 | D = 0 | E = -7 | F = -0.3

compound: Cc1[nH]c(C)c2c(=O)n(Cc3ccccc3Cl)ncc12
  A = 0 | B = -4 | C = -6 | D = 28 | E = nt | F = 0.4

compound: Cc1ccc(C(=O)NCCCNC(=O)c2ccco2)cc1C
  A = 17 | B = -11 | C = -11 | D = 45 | E = 1 | F = 0.2

compound: Cc1cc(C)c(NC(=O)CS)c(Cl)c1
  A = 2 | B = 1 | C = -2 | D = 7 | E = -2 | F = -0.4

compound: O=C(Cc1c(F)cccc1Cl)NCCCn1ccnc1
  A = 1 | B = 16 | C = -11 | D = 20 | E = 1 | F = 1.0

compound: CCN(CC)C(=O)c1sc2nc(-c3ccccn3)[nH]c(=O)c2c1C
  A = -90* | B = 3 | C = -88* | D = -11 | E = nt | F = -0.3

compound: Cc1ccccc1OCCSc1nc2ccccc2n1CCC(=O)O
  A = -2 | B = -4 | C = 5 | D = 10 | E = -1 | F = -0.2

compound: Cn1c(NCCOc2ccccc2)nc2cc(-c3ccc(F)cc3)sc2c1=O
  A = 19 | B = -1 | C = 29 | D = nt | E = nt | F = 0.0

compound: O=C(COC(=O)/C=C/c1cccc(C(F)(F)F)c1)NCc1ccccc1
  A = -9 | B = 5 | C = -14 | D = 0 | E = 0 | F = -0.8

compound: Cc1cc(N)n2nc(-c3ccccc3)c(-c3ccccc3)c2n1
  A = -2 | B = -9 | C = nt | D = nt | E = -25 | F = nt

compound: OCC[C@H]1C[C@H](O)[C@@H](O)[C@]2(CCCO2)O1
  A = 11 | B = -12 | C = 4 | D = 17 | E = nt | F = 0.4

compound: CCC(Oc1ccccc1)C(=O)Nc1nnc(S(=O)(=O)Nc2ccccc2)s1 (stereo unspecified)
  A = 2 | B = -1 | C = -3 | D = -6&23 | E = 22 | F = 0.4&0.6

compound: Cc1ccccc1NC(=O)Nc1nc(C(N)C2CCCCC2)cs1 (stereo unspecified)
  A = -9 | B = -12 | C = -12 | D = nt | E = nt | F = 1.2

compound: O=S1(=O)N=C(Nc2ccc(S(=O)(=O)N3CCCCC3)cc2)c2ccccc21
  A = -2 | B = 2 | C = 0 | D = -13 | E = -4 | F = 0.3

compound: NC(=O)Cc1ccc(OCc2nn[nH]n2)cc1
  A = 1 | B = -7 | C = -8 | D = -6 | E = nt | F = -0.8

compound: CCOC(=O)C1CCN(C(=O)C2CCCN(c3ncnc4c3nc3n4CCCCC3)C2)CC1 (stereo unspecified)
  A = -2 | B = 0 | C = nt | D = 6 | E = 9 | F = 3.8

compound: CN(C)C(=O)COc1ccc(Oc2ccccc2)cc1
  A = -1 | B = -9 | C = 10 | D = 15 | E = -10 | F = 3.9

compound: COc1cccc(NC(=O)N2CCN(c3cccc(C)c3)C(C)C2)c1 (stereo unspecified)
  A = -11 | B = 3 | C = -3 | D = 0 | E = -10 | F = 0.5

compound: CC(C)c1[nH]nc2c1C(c1cccs1)C(C#N)=C(N)O2 (stereo unspecified)
  A = -4 | B = -4 | C = -12 | D = -3 | E = 13 | F = -0.2

compound: CCCCn1c(SCC(=O)NC2CC2)nnc1-c1ccncc1
  A = -2 | B = -6 | C = 4 | D = 2 | E = ? | F = 0.4

compound: O=C(Nc1cccc(S(=O)(=O)N2CCCCC2)c1)C1CCCN1S(=O)(=O)c1ccccc1F (stereo unspecified)
  A = -5 | B = 25 | C = -7 | D = 29 | E = 1 | F = 1.1

compound: CC(C)(C)NS(=O)(=O)c1ccc(CCC(=O)NCc2cccnc2)cc1
  A = -1 | B = -12 | C = 9 | D = 2 | E = 0 | F = -0.1

compound: Cc1ccc(CCNC(=O)c2cc(S(=O)(=O)N3CCCC3)cn2C)cc1
  A = -1 | B = -4 | C = 2 | D = -4 | E = 23 | F = 0.2

compound: CC(C)C(=O)N1CCC1(C)C(=O)NCc1ccc(C(C)(C)C)cc1 (stereo unspecified)
  A = 0 | B = -10 | C = 7 | D = nt | E = nt | F = -0.3

compound: CCOC(=O)Nc1ccc(N2CCOCC2)c(S(=O)(=O)N2CCOCC2)c1
  A = -2 | B = -19 | C = 2 | D = -9 | E = -11 | F = -0.2

compound: O=C(Cc1c(F)cccc1Cl)NCc1cccnc1
  A = -2 | B = -19 | C = 3 | D = 6 | E = 1 | F = 0.0

compound: O=C(NCCc1ccccc1)c1cccc(S(=O)(=O)N2CCCCC2)c1
  A = 6 | B = ? | C = -5 | D = -9 | E = -9 | F = 0.2

compound: CCOC(=O)c1ccccc1OCc1cc(/C=N/n2cnnc2)ccc1OC
  A = 1 | B = -12 | C = 0 | D = 21 | E = nt | F = 1.0

compound: O=C(O)c1cccc(NC(=S)NC(=O)c2cccc(OCc3ccccc3)c2)c1
  A = -13 | B = -10 | C = -13 | D = nt | E = 10 | F = nt

compound: CCOc1ccc(C(C)=O)cc1N1C(=O)C2C3C=CC(C3=C(C)C)C2C1=O (stereo unspecified)
  A = 0 | B = 8 | C = -16 | D = 21 | E = 2 | F = 0.0

compound: CCOC(=O)c1c(SC)n(-c2ccccc2)c(=S)n(-c2ccccc2)c1=O
  A = 9 | B = -5 | C = 0 | D = 0 | E = 10 | F = -0.1

compound: O=C(Nc1ccccc1C(=O)N1CCCC1)c1cccc(S(=O)(=O)N2CCCCC2)c1
  A = 9 | B = 0 | C = -1 | D = -6 | E = 25 | F = -0.1

compound: CN(C)CCNc1oc(-c2ccccc2F)nc1C#N
  A = 26 | B = -5 | C = 2 | D = 1 | E = -3 | F = 0.8

compound: Cc1c(C(=O)NCC2CCCO2)sc2nc(-c3ccccc3)cn12 (stereo unspecified)
  A = 3 | B = -5 | C = -4 | D = -12 | E = nt | F = -0.2

compound: O=C(Cn1sc2ccccc2c1=O)Nc1ccccc1
  A = 12 | B = -23 | C = -25 | D = 6 | E = nt | F = 4.5

compound: CCN1C(=O)N[C@@H](c2ccc(Br)cc2)C(C(C)=O)=C1C
  A = 3 | B = -9 | C = 9 | D = -15 | E = nt | F = -0.6

compound: CC(=O)[C@@]1(O)C(C)CC2C3C=C(C)C4=Cc5c(cnn5-c5ccccc5)C[C@]4(C)C3C(O)C[C@@]21C (stereo partly specified)
  A = -5 | B = 2 | C = 1 | D = -1 | E = -10 | F = -0.7

compound: CC(C)(C)c1[nH]ncc1[N+](=O)[O-]
  A = 9 | B = -1 | C = 3 | D = 2 | E = 6 | F = 0.4

compound: CCOc1cc(C2NC(=O)N(C)C(C)=C2[N+](=O)[O-])ccc1OC(C)=O (stereo unspecified)
  A = -1 | B = -11 | C = 6 | D = -8 | E = 17 | F = -0.5

compound: Cc1ccc(C)c(OCc2nc3ccc(S(=O)(=O)Nc4c(C)n(C)n(-c5ccccc5)c4=O)cc3[nH]2)c1
  A = -1 | B = -2 | C = -10 | D = 1 | E = -3 | F = 2.8

compound: CCCCn1c(N)c(NCCC)c(=O)[nH]c1=O
  A = -1 | B = -10 | C = 3 | D = -3 | E = 4 | F = 1.7

compound: Cn1c(=O)c(C(=O)CN2CCN(Cc3ccc4c(c3)OCO4)CC2)c(N)n(Cc2ccccc2)c1=O
  A = 1 | B = -24 | C = nt | D = 7 | E = 10 | F = -1.0

compound: Cc1ccccc1CN1CCCNC1=O
  A = 3 | B = -11 | C = 3 | D = 20 | E = 1 | F = -0.2

compound: COc1ccc(CN2CCN(S(=O)(=O)c3ccc(C)cc3)CC2)cc1OC
  A = -1 | B = -9 | C = -1 | D = -12 | E = nt | F = -0.7

compound: O=C(CCCCl)NC(=S)Nc1cc(C(F)(F)F)ccc1N1CCOCC1
  A = -1 | B = -2 | C = nt | D = 6 | E = -25 | F = 0.6

compound: COc1cc(C2/C(=C(\O)c3ccc4c(c3)OCCO4)C(=O)C(=O)N2Cc2ccccc2)ccc1O (stereo unspecified)
  A = 0 | B = 2 | C = 0 | D = 35 | E = 26 | F = 0.4

compound: COc1cc(C2c3[nH]c4ccccc4c3C[C@@H]3C(=O)N(Cc4ccco4)CC(=O)N23)cc(OC)c1OC (stereo partly specified)
  A = -8 | B = 4 | C = -3 | D = -1 | E = 15 | F = 4.8

compound: CCN(CC)S(=O)(=O)c1cccc(NC(=O)CCNC(=O)c2ccc([N+](=O)[O-])cc2)c1
  A = 1 | B = -4 | C = -11 | D = -5 | E = -15 | F = 3.5

compound: COc1cc(/C=N/NC(=O)c2ccc(NS(=O)(=O)c3cccs3)cc2)cc(OC)c1O
  A = ? | B = 16 | C = nt | D = -5 | E = 9 | F = -1.4

compound: Cn1c(CCN2CCN(c3ccccn3)CC2)nc2cc(NS(=O)(=O)c3ccccc3)ccc21
  A = -7 | B = -25 | C = -8 | D = 25 | E = 3 | F = -0.4

compound: CCOC(=O)C1=CCN(S(=O)(=O)c2ccc(Cl)cc2)C1c1ccccc1 (stereo unspecified)
  A = 12 | B = -1 | C = 6 | D = nt | E = nt | F = -0.6

compound: CC1=C(CC[C@@H](C)CO)OC2CC3C4CCC5CC(O)CCC5(C)C4CC(=O)C3(C)C12 (stereo partly specified)
  A = -2 | B = 28 | C = 8 | D = nt | E = nt | F = nt

compound: CCn1cc(C(=O)N[C@H](C(=O)NCCO)C(C)C)c(=O)c2cc3c(cc21)OCO3
  A = 3 | B = -1 | C = -15 | D = 0 | E = -14 | F = 1.4

compound: CCC1(C)N(O)C(C)(C)C(c2ccc(F)cc2)=[N+]1[O-] (stereo unspecified)
  A = 1 | B = -4 | C = 0 | D = 14 | E = -4 | F = 0.1

compound: NC(=O)C1CCN(c2ccc(C(F)(F)F)cn2)CC1
  A = -4 | B = -16 | C = -3 | D = -1 | E = -6 | F = -0.3

compound: COc1ccccc1CCC(=O)OCC(=O)NC1CC1
  A = 8 | B = -2 | C = 0 | D = -17 | E = -4 | F = 0.1

compound: Cc1csc2ncc(C(=O)N3CCc4ccccc43)c(=O)n12
  A = 25 | B = 1 | C = 0 | D = -10 | E = nt | F = -0.7

Another view of some results above.
| Compound | Six1-Eya2 inh | D2 potentiator | CtBP-E1A blk | TRPML1 inh | TRPV1 potentiator | TRPML1 ag |
| --- | --- | --- | --- | --- | --- | --- |
| CCC1(C)N(O)C(C)(C)C(c2ccc(F)cc2)=[N+]1[O-] (stereo unspecified) | 1 | -4 | 0 | 14 | -4 | 0.1 |
| NC(=O)C1CCN(c2ccc(C(F)(F)F)cn2)CC1 | -4 | -16 | -3 | -1 | -6 | -0.3 |
| COc1ccccc1CCC(=O)OCC(=O)NC1CC1 | 8 | -2 | 0 | -17 | -4 | 0.1 |
| Cc1csc2ncc(C(=O)N3CCc4ccccc43)c(=O)n12 | 25 | 1 | 0 | -10 | nt | -0.7 |
